High-throughput results: PubChem BioAssay, several laboratories
HNF4A DNA FP: change in binding of human HNF4 alpha to DNA; P41235; HNF4a-FITC DNA binding, fluorescence polarization, 1 h; activity change, % at 10 µM; 360,000 tested, 0.3% active; AID 1224865; in the data active = activity change above about 30%, passing the limit was not always enough;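 also: controls were the assay level and a saturating level of protein; the project sought stronger binding though the title names inhibitors; some compounds called inactive have numbers as strong as hits; positive values seem to mean higher polarization but the record does not say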
Target sequence (P41235 whole entry, looked up): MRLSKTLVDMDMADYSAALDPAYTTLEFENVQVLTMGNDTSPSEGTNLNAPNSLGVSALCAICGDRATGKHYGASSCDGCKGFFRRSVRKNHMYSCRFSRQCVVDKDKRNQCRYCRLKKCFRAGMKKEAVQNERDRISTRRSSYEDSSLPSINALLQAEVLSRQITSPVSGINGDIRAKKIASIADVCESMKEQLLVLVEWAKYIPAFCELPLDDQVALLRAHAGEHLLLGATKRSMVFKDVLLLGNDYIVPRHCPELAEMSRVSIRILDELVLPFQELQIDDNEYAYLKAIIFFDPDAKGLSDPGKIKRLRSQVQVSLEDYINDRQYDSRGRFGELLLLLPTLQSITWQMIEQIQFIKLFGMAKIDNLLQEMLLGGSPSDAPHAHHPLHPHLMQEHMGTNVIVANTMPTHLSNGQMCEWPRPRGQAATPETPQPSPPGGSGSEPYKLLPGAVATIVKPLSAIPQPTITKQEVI
B2AR ag: agonists of human beta-2 adrenergic receptor inducing internalization; 340,000 tested, 0.43% active; Am2.2-beta2AR cells, FAP receptor internalization, flow cytometry; reference of the scale not given here; AID 504454; P07550; response, % (concentration not given with the values);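 active = response above a set limit, near 3 SD of response in nonfluorescent compounds, cut at about 42% in these data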;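 also: stock transfer was 100 nL into about 11 µL; a reference agonist was the positive control; negative values mostly stem from fluorescent compounds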
Target sequence (P07550 whole entry, looked up): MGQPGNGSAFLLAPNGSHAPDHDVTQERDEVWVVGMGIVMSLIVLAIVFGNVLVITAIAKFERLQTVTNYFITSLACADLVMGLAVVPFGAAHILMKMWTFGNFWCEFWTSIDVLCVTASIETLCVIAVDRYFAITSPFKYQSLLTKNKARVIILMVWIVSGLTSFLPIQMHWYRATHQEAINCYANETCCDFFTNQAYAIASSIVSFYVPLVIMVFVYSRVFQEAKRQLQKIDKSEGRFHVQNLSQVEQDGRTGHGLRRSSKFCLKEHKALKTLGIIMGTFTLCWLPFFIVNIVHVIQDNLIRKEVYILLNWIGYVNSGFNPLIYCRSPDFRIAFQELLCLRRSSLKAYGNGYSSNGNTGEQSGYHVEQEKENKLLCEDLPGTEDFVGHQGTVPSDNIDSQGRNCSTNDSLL
ALR H2O2 inh: blocks human ALR sulfhydryl oxidase activity; purified ALR, DTT oxidation, H2O2 HRP-luminol luminescence; P55789; inhibition, % (concentration not given with the values); 290,000 tested, 3.8% active; AID 485317;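 active = mean and each replicate at 75% or more; inconclusive = only one of the two met; inactive = neither met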;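 also: stock transfer was 7.5 nL into about 7.5 µL; 0% = neutral wells and 100% = wells with inactivated enzyme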
Target sequence (P55789 whole entry, looked up): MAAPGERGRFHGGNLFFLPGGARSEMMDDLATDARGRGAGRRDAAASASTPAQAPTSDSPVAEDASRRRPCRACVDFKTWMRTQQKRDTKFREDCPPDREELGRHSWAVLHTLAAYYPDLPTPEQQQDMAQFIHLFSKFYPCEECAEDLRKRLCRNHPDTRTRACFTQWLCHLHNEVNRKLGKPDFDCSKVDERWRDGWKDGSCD
RanGTP-Imp inh: inhibitors of RanGTP-importin-beta interaction, primary screen, biochemical, FRET, CFP-Ran, YFP-importin-beta, homogeneous. inhibition, % (test concentration not listed). cell-free CFP-Ran/YFP-importin-beta FRET ratio. 300,000 tested, 1.1% active;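 active = most replicates above 15%; inconclusive = exactly half above 15%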;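 also: 0% = DMSO wells and 100% = Ran loaded with GDP instead of GTP; wells of about 40 µL received 100 nL stock; the first replicate is given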
Calb FLC: affects C. albicans growth with fluconazole; C. albicans CaCi-2 (fluconazole-resistant clinical isolate) + fluconazole, Alamar Blue growth, 48 h; growth inhibition, % (test concentration not listed); 300,000 tested, 0.57% active; AID 1979;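 active = most replicates above 75%; inconclusive = exactly half above 75%; inactive = most below 75%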;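 also: all wells also contain fluconazole at 8 µg/ml as a sub-toxic cotreatment; 0% = median of DMSO wells and 100% = median of geldanamycin control wells; wells of about 8 µL received 7.5 nL stock; the first replicate is given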
LANA-H2B inh: blocks KSHV LANA binding to histone H2A/H2B | Q9QR71 | cell-free LANA-H2A/H2B peptide, fluorescence polarization | inhibition, % (concentration not given with the values) | 320,000 tested, 0.6% active | AID 2629; in the data active = inhibition mostly above about 10%, no sharp cut-off; inactive = mostly below about 6.7%;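 also: stock transfer was 7.5 nL into about 10 µL; 0% = median of vehicle wells and 100% = median of positive control wells; one replicate is shown; the record names a cut of 25% in any replicate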
Vif A3G: HIV-1 Vif–A3G interaction blockers – biochemical, TR-FRET, GST-Vif 1-94, biotin-A3G peptide, dose response retest, primary screen (AID 1117319); TR-FRET GST-Vif / biotin-A3G peptide binding; higher % means a stronger effect; test concentration not given here; strong numbers were not always called active; one-dose inhibition, %; IC50 in µM for titrated hits; 260,000 tested, 0.57% active;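 active = above the screen mean plus three standard deviations and confirmed in dose response; inconclusive = results disagree or hit not tested in dose response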;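 also: Vif residues 1-94 fused to GST binding biotinylated APOBEC3G peptide 110-148; 0% = full assay without inhibitor and 100% = GST in place of GST-Vif; retest series ran down from 100 µM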
An asterisk follows results filed as active; i = inactive; u = inconclusive; x = no result given; & = joins results of further samples.

Value order – HNF4A DNA FP	B2AR ag	ALR H2O2 inh	RanGTP-Imp inh	Calb FLC	LANA-H2B inh	Vif A3G
Cc1nnc(SCC(=O)Nc2ccc(S(=O)(=O)N3CCCC3)cc2)n1N
 : 3.9	-1.5	-3.1	u	-24.8	-0.7	6.9%
COC(=O)CNc1nc(Cl)nc(Nc2ccc(C)cc2)n1
 : 1.8	8.3	-5.4	6.5	14.4	1.7	-2.4%
CCOC(=O)C1C(=O)NC(c2ccccc2)=NC1c1ccc(F)cc1 (centres undefined)
 : 3.7	-0.9	98.1*	-3.0	-12.8	0.4	-5.3%
COc1ccc(CCC(=O)N2CCN(c3cccc(C)c3C)CC2)cc1
 : -0.8	-3.0	-1.2	-4.1	11.8	2.4	x
O=C(c1ccco1)N1CCN(C(=O)N2CCCCC2)CC1
 : -1.4	1.0	-0.5	2.8	-18.1	-1.2	-0.1%
Cc1cccc(N2CCN(c3cc(C)nc4nnnn34)CC2C)c1 (centres undefined)
 : 5.7	2.9	x	0.2	-12.2	-0.9	u
COC(=O)c1nn(-c2cccc(C(F)(F)F)c2)c(=O)cc1Sc1ccccn1
 : 3.3	8.5	-9.9	2.5	5.1	1.5	-6.1%
Fc1ccc(CNC(=S)NC2CCCCC2)cc1
 : 3.3	-5.8	0.6	1.3	-14.4	-3.6	1.4%
O=C(C1CCN(S(=O)(=O)N2CCOCC2)CC1)N1CCc2ccccc21
 : x	x	-9.0	u	7.9	-1.0	6.7%
O=C(C1CC1)N(CCc1ccccc1)Cc1nc2ccccc2c(=O)[nH]1
 : -0.6	7.7	9.6	x	-5.6	-4.1	2.7%
CCCCCCCOC(=O)C[N+](C)(C)CCOC1CC2CCC1(C)C2(C)C (centres undefined)
 : 0.5	-1.4	x	u	107.5*	x	4.7%
Cc1ccc(CNC(=O)CCC(=O)Nc2nnc(C)s2)cc1
 : 1.8	2.1	-0.1	4.6	2.1	7.1	-3.1%
Cc1cc(NC(=O)CSc2nc3ccccc3cc2C#N)no1
 : 14.8	0.5	x	-3.8	13.7	1.5	-6.6%
O=C(O)c1cc([N+](=O)[O-])ccc1NCc1ccccn1
 : -5.2	-4.8	-5.3	x	x	-3.3	x
Cn1c(=O)[nH]c(=O)c2c1nc(N1CCCCC1)n2CC(O)COc1ccc([N+](=O)[O-])cc1 (centres undefined)
 : -3.8	16.4	5.7	3.7	52.4	1.3	x
COC(=O)Cn1c(CCS(=O)(=O)c2ccc(Cl)cc2)nc2ccccc21
 : -2.4	1.8	7.0	0.5	0.2	1.2	-2.3%
O=C1CCCN1C(=O)CSc1nnnn1-c1ccccc1
 : 0.3	-15.9	-15.1	x	x	-0.1	-4.7%
O=[N+]([O-])c1cccc(S(=O)(=O)NCCOc2cccc3cccnc23)c1
 : -4.2	0.8	-10.1	-2.8	7.5	0.8	x
CCc1nnc(NC(=O)CSc2nnc(CNc3cccc(Cl)c3)n2CC)s1
 : 3.8	-4.8	3.7	u	-10.5	-21.4	-2.0%
COC(=O)c1ccccc1NC(=O)CN1C(=O)C2CCCN2c2ncc(Cl)cc21 (centres undefined)
 : x	x	-39.5	0.7	1.9	-2.7	-3.5%
CC(NCc1ccc(S(N)(=O)=O)cc1)C(=O)Nc1cccc(Cl)c1 (centres undefined)
 : 14.0	-3.2	-0.7	0.9	-3.7	2.3	-5.4%
CCCN(CCC)C(=O)C1CCC(CNS(=O)(=O)c2cccc3nsnc23)CC1 (centres undefined)
 : 2.1	-3.8	-46.7	-2.2	11.2	x	x
Cc1cccc(NC(=O)C2CCCN(S(=O)(=O)c3ccc4[nH]c(=O)ccc4c3)C2)c1 (centres undefined)
 : 0.6	2.6	5.4	3.2	-2.6	6.0	-5.4%
COc1cccc2cc(C(=O)C3=C(O)C(=O)N(CCN(C)C)C3c3ccc(Cl)cc3)oc12 (centres undefined)
 : -2.5	-2.2	29.1	4.8	1.2	-0.3	-13.2%
Cc1cc(C(=O)NC2CC(C)(C)Cc3c2cnn3-c2ccc(F)cc2)nn1C (centres undefined)
 : 0.9	-3.9	14.7	2.1	13.5	x	-0.3%
COc1cccc(CNC(=O)[C@@H](C)N2C(=O)N3CCc4c([nH]c5ccc(OC)cc45)C3(C)C2=O)c1 (some centres undefined)
 : 2.4	0.2	-0.3	-0.5	1.5	17.4	x
Cc1ccc(NS(=O)(=O)c2cn(C)c(=O)n(C)c2=O)c(C)c1
 : -3.3	-0.5	1.4	-1.4	-3.7	1.2	x
Cc1cccc(C)c1NC(=O)CCCSc1nnc(-c2ccc(F)cc2)n1-c1ccccc1
 : 0.3	8.4	95.8*	1.8	3.4	0.3	x
CCOc1ccc(CN2CCN(Cc3c[nH]c4ccccc34)CC2)cc1
 : -0.1	-4.4	8.6	3.8	-14.0	-0.6	0.4%
CC(=O)Nc1nc(-c2ccc3ccccc3c2)cs1
 : -3.7	8.5	-2.0	4.4	-7.5	-3.5	5.4%
COc1ccc([C@H]2CC(=O)C=C(c3ccc(F)nc3)C2)cc1OC
 : 1.6	-16.9	-1.0	x	x	2.0	x
COc1ccc(C(=O)NCc2nnc(SCC(=O)c3ccc(F)cc3)n2C)cc1OC
 : 2.8	1.0	93.7*	4.1	1.9	0.1	0.1%
CCOc1ccc(NC(=O)c2ccc(NC(=O)c3ccc(NC(N)=O)cc3)cc2)cc1
 : -13.1	x	0.3	x	x	2.4	x
COc1cc2c(c(OC)c1O)C(=O)CO2
 : -1.7	-1.0	-18.3	-2.3	10.1	-0.9	x
CC1CCCC(C)N1C(=O)Cn1cc(/C=C2/C(=O)Nc3ccccc32)c2ccccc21 (centres undefined)
 : 5.7	21.1	-0.5	-7.6	-22.7	-0.4	0.2%
C/C(=N\NC(=O)COc1ccccc1-c1ccccc1)c1ccc(O)cc1O
 : -0.2	19.2	0.8	1.2	-5.4	0.4	-2.7%
Cc1ccc(NC(=O)/C(=C/c2cccs2)NC(=O)c2ccco2)c(C)c1
 : 0.6	-4.8	-2.8	-2.0	1.0	-4.1	x
OCCNc1c2ccccc2nc2c(F)c(F)c(F)c(F)c12
 : -54.9	-90.7	-3.5	20.0*	-2.7	i	x
CCOc1ccccc1NC(=O)C1CCCN(S(=O)(=O)c2ccc3c(c2)C(C)(C)C(=O)N3C)C1 (centres undefined)
 : 3.6	-9.1	0.6	0.7	-9.5	6.4	x
Cc1nc2c3ccccc3nc(SCC(=O)c3ccc(Cl)cc3)n2n1
 : -0.1	-8.5	-14.5	1.9	11.0	3.2	13.3%
Cc1ccnc(NC(c2ccccc2)c2ccc3cccnc3c2O)c1 (centres undefined)
 : 0.1	-1.1	x	x	x	x	-1.7%
CC(=O)N1CCN(C(=O)CSc2cc(C)c(Br)cc2C)CC1
 : -1.4	5.1	-9.0	0.4	-33.7	-2.1	x
CC1(C)CC2CN(C(=O)Cc3ccccc3)C(C)(C2)C1 (centres undefined)
 : 1.1	-13.6	-20.2	5.5	u	2.9	0.4%
O=C(NCc1cccc(Cl)c1)c1cc(=O)[nH]c2ccccc12
 : 5.0	0.3	-5.5	-0.7	7.8	-2.3	x
COc1cc(NC(=O)c2ccccc2)c(OC)cc1NC(=O)Cc1ccc(Br)cc1
 : -0.9	-2.8	-10.6	9.2	-8.2	-4.7	x
COc1ccc(-n2cc(-c3ccccc3)[nH]c2=S)cc1
 : -1.9	-14.4	85.1*	1.4	-2.7	2.5	x
COc1ccc(C(=O)COC(=O)c2ccc(OC)c(OC)c2)cc1OC
 : -0.3	2.2	28.5	2.6	0.7	-35.9	-13.5%
O=C(Nc1ccc(C(=O)N2CCN(c3ccccc3F)CC2)cc1)C1=CSCCO1
 : 2.0	1.1	-0.7	0.9	-9.4	3.5	x
CC1c2nc3ccccc3n2C(CC(=O)NCc2ccccn2)C(=O)N1Cc1ccccc1 (centres undefined)
 : 0.2	-3.8	3.1	u	2.3	4.4	6.6%&-6.7%
O=C(COC(=O)c1cnccn1)c1ccc(-c2ccccc2)cc1
 : 5.3	-8.6	-9.2	-0.8	1.3	-1.1	-13.8%
CCCN(CCO)Cc1ccc(Br)cc1
 : 3.1	9.5	-3.8	1.7	15.7	-0.3	4.8%
Cc1cc(C)nc(SCCC(=O)Nc2ccccc2C)n1
 : 4.3	12.4	-8.3	6.1	4.3	-1.4	1.1%
COC(=O)c1cc(CNC(=O)CC(C)c2ccccc2)ccc1OC (centres undefined)
 : -0.1	7.0	-3.8	-0.1	-3.6	1.9	x
O=C(Nc1ccc(F)cc1)Nc1nnc(-c2ccccc2)o1
 : 1.6	12.3	-9.1	4.4	-11.8	7.9	31.3%
CCc1cc2c(C)ccc(C)c2nc1SCC(=O)Nc1c(C)[nH]c(=O)[nH]c1=O
 : 0.2	13.8	x	-2.6	-3.6	x	-1.8%
CCn1nnc(NC(=O)c2cccc(-c3cc4ccccc4oc3=O)c2)n1
 : -1.1	-3.2	-3.2	-0.7	40.5	-0.9	3.1%
COC(=O)C(C)Sc1nnc(-c2ccncc2)o1 (centres undefined)
 : -1.7	15.1	-12.9	0.1	2.2	-9.0	28.0%
Cc1ccc(Cl)cc1N1CCN(Cc2nnnn2C2CCCCC2)CC1
 : 1.7	0.9	-7.5	-0.6	-1.0	-1.7	3.8%
O=Cc1ccc(OCc2cn3ccccc3n2)cc1
 : -2.5	-32.8	4.0	-3.4	17.7	2.0	-3.2%
Fc1ccccc1/C=N/Nc1nc(-c2ccccn2)nc2ccccc12
 : x	x	-1.9	0.6	-5.5	5.6	-7.8%

Later entries.
Value order – HNF4A DNA FP	B2AR ag	ALR H2O2 inh	RanGTP-Imp inh	Calb FLC	LANA-H2B inh	Vif A3G
CCCc1nnc(NC(=O)c2c(O)c3cccc4c3n(c2=O)CC4)s1
 : x	x	-0.3	-1.1	-9.0	-3.9	x
Cc1ccccc1CS(=O)(=O)c1ccc(C(=O)N2CCOCC2)cc1[N+](=O)[O-]
 : -3.4	-2.6	0.8	1.9	2.5	-2.6	x
Cc1cccc2cc3c(NC(=O)C(C)C)nn(C)c3nc12
 : 3.9	0.2	-27.1	46.6*	0.5	-7.6	-2.0%
CCOC(=O)Nc1nnc(CCc2ccccc2)s1
 : 1.1	-0.3	-11.5	-0.4	-15.7	3.7	0.8%
Cc1cc(C)nc(NS(=O)(=O)c2cccs2)c1
 : 2.3	-4.5	-6.0	-4.6	5.2	1.8	-6.5%
c1ccc(-c2ncc(CN3CCN(c4ccccn4)CC3)[nH]2)cc1
 : 3.6	-9.8	-6.6	-0.5	-1.8	9.4	1.4%
Cc1ccc(S(=O)(=O)N2CCCN(C(C)c3nc4ccccc4c(=O)[nH]3)CC2)cc1 (centres undefined)
 : -3.2	2.1	x	x	x	-3.2	-10.0%
COc1ccc(/C=C/C(=O)NC(=S)Nc2ccc(S(=O)(=O)N=C(N)N)cc2)cc1OC
 : -2.1	3.5	6.4	-1.1	-0.8	-0.8	-4.4%
N=C(CC1CC(=O)NC(=O)C1)C1=C(O)CCCC1=O
 : -0.2	-1.0	-2.8	-2.6	-22.5	1.0	x
O=C(Nc1ccc(Oc2ncnc3cc(Cl)ccc23)nc1)Nc1cccc(C(F)(F)F)c1
 : 0.8	-10.0	-8.9	-3.8	-23.3	-3.8	2.6%
CCN1C(=O)[C@H]2[C@@H](c3ccc(-c4ccc(OC)cc4)cc3)N3CCC[C@@]3(C(=O)OC)[C@H]2C1=O
 : 4.0	4.1	1.3	3.0	11.4	3.6	x
Cc1ccc(-n2c(=O)[nH]cc(C(=O)N3CCc4ccccc43)c2=O)cc1
 : -3.1	-7.5	-0.1	-4.8	11.8	-1.8	-5.2%
